# Env fusion inh – HIV envelope-mediated fusion inhibition. inhibition, % at 12.3 µM. HeLa-JRFL Env/CEM21 cell fusion, luciferase. 360,000 tested, 1.1% active;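 active means mean replicate inhibition score of at least 50 and every replicate individually at or above 50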;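 further: 0% = plate neutral controls and 100% = maraviroc near 300 nM; one replicate is shown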
# MT1-MMP act inh – MT1-MMP (human) activation inhibition; GFP/RFP ratio change, % at 20 µM; HT1080 RFP-PRO-GFP cells, GFP/RFP ratio fluorescence, overnight; percent of plate control window, DMSO zero; 360,000 tested, 0.061% active; P50281;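 active means GFP/RFP ratio change of at least 30% with cell ATP level not reduced by more than half and red fluorescence within 50% of control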; further: strong numbers were not always called active
#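 Read-out: GFP/RFP fluorescence ratio; Test system: RFP-PRO-GFP reporter HT1080 cells; Compound dosing: single-point 20 µM compound, 1% DMSO; Times: overnight compound exposure at 37 °C.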
# UUG fidelity – alters start codon recognition fidelity in yeast; S. cerevisiae UUG-firefly luciferase reporter, luminescence/redox ratio; activity score, % at 18.7 µM; 350,000 tested, 0.13% active; AID 602363;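 active means replicate mean at a twofold rise or more, about +100% in these data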;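 further: firefly luciferase made from a UUG start codon reports start codon fidelity; reporter light over untreated wells divided by growth signal over untreated wells; some hits fall short of that in this replicate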
# Rce1 inh – yeast Ras-converting enzyme inhibition; Q03530; yeast membranes, quenched prenylated peptide cleavage fluorescence; calls only; 290,000 tested, 0.27% active; AID 2563;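 active means fall in fluorescence gain of 50% or more versus controls, with final raw signal at or below 3038400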;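 further: plate controls were neutral control wells for no effect and wells lacking membranes for full effect; tested at 10 µM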
# Target sequence (Q03530 whole entry, looked up): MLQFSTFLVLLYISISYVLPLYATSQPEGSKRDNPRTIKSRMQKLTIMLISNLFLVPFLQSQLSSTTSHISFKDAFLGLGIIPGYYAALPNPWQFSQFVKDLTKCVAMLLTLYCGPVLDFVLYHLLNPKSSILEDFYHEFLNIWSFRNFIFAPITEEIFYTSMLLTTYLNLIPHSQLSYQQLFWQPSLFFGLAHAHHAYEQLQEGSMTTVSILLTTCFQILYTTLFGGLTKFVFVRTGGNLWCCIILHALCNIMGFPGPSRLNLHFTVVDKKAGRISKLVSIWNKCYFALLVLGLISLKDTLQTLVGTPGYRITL
# PABP FP inh – PABP-poly(A) binding inhibition. 290,000 tested, 1% active. P11940. PABP-poly(A) RNA binding, fluorescence polarization. inhibition, % at 35 µM;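 active means 50% or more with normal probe brightness, or confirmed in later tests; about a fifth of its hits are not listed in these tables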;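 further: calls also rest on retests at 20 µM and on dose response follow-up; controls were probe without protein and protein plus probe with vehicle; some compounds called inactive have numbers as strong as hits; many hits fall short of the cut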
# CSC inhib – cancer stem cell inhibition; cancer stem cell-like cells viability, luminescence; inhibition, % at 7.5 µM; 300,000 tested, 1.1% active;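 active means mean at 75% or more and at least half the replicates too; tested in HMLE shEcad cells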;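 further: 0% = median of negative and 100% = median of positive control wells; the first replicate is given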
# eIF4H inh – inhibitors of RNA binding by human eIF4H; inhibition, % at 35 µM; Q15056; eIF4H fluorescence polarization binding assay; 290,000 tested, 0.94% active;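 active means 50% or more with normal probe brightness, or confirmed in later tests; about a fifth of its hits are not listed in these tables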;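 further: calls also rest on retests at 20 µM and on dose response follow-up; 0% = protein and probe with vehicle and 100% = probe without protein; strong numbers were not always called active; many hits fall short of the cut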
# eIF4H inh retest – recorded beside eIF4H inh, whose call it bears; inhibition, %; compound at 20 µM; confirmation average;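 mean of two retest wells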
# PABP FP inh retest – further read-out of PABP FP inh, marked with its call; inhibition, %; compound at 20 µM; confirmation repeats;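 mean of two retest wells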
# MT1-MMP act inh RFP – further read-out of MT1-MMP act inh, marked with its call; RFP signal change, %; measured here: RFP expression control read;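 0 = vehicle wells; hits needed this value within 50% of zero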
# * hit, by the source's call; i = inactive; . = not tested or not shown. This is a subset; rates above refer to the full screens.
SMILES,Env fusion inh,MT1-MMP act inh,MT1-MMP act inh RFP,UUG fidelity,Rce1 inh,PABP FP inh,CSC inhib,eIF4H inh,others
Cc1ccc(C(C)C)c(OCC(=O)N/N=C/c2cccn2C)c1,3.3,1.1,-13.1,-7.0,i,-5.5,33.4,6.6,
CC1(C)CC2(CCO1)OC(=O)CC2C(=O)Nc1ccc(Cl)cc1[N+](=O)[O-] (stereo not drawn),-12.0,0.8,6.2,.,i,7.1,-6.1,-8.8,
COc1cc(/C=C2\SC(=N)N(c3ccc4c(c3)OCO4)C2=O)cc(OC)c1O,-15.0,-83.0,14.5,-1.4,i,9.8,22.0,7.5,
CCOC(=O)c1ccc(NC(=O)Nc2cc(C)on2)cc1,-12.6,0.1,-0.8,-26.9,i,5.0,16.2,-1.6,
Cc1ccc2cc(CCl)c(Cl)nc2c1,3.9,3.6,6.0,-0.1,i,1.5,3.3,-1.3,
CCOc1ccc(NC(=O)COC(=O)Cn2cnnn2)cc1OCC,.,9.7,5.6,-2.7,i,9.1,-5.2,-12.3,
CNC(=O)/C(C#N)=C\c1cc(C)n(-c2ccc(N3CCOCC3)cc2)c1C,14.1,2.2,-1.8,.,i,1.5,-9.0,5.4,
NC(=S)NN=C1c2ccccc2-c2ccccc21,-35.2,3.8,-13.3,-17.4,i,-5.4,2.2,-8.3,
CC(C)(C)c1cc(NC(=O)c2cccnc2)no1,-55.6,1.0,-3.9,-6.6,i,9.4,-0.2,4.4,
CC(=O)Nc1cccc(N2CCCC2=O)c1,.,5.8,1.0,.,i,5.0,-0.3,-5.6,
Cc1ccc2c(c1)N(C(=O)CCC(=O)NCCCN1CCOCC1)CCO2,.,0.4,4.0,-18.3,i,5.5,-10.3,-1.6,
O=C(CCS(=O)(=O)c1ccccc1)Nc1ccc(N2CCN(Cc3ccccc3)CC2)cc1,-1.0,4.3,-7.7,18.5,.,.,.,.,
CCOc1ccc(S(=O)(=O)N2CCN(c3ccccc3)CC2)c2cccnc12,.,4.2,-1.0,-4.2,i,4.2,6.7,-5.1,
O=C(CSCc1c(Cl)cccc1Cl)Nc1ccc2c(c1)OCO2,-11.5,-0.1,-1.8,2.0,i,-6.1,5.8,-5.3,
CCCCCCNC(=O)N1C/C=C\C(c2ccc(OC)cc2)N(Cc2ccc(F)cc2)C(=O)C1 (stereo not drawn),28.0,0.6,-0.9,-12.9,i,-6.7,-11.0,-3.7,
CC(=O)Oc1ccc(-c2csc(Nc3cccnc3)n2)cc1,-202.9,-2.6,-4.9,-18.6,i,-2.6,13.3,0.8,
Cc1cc(C)c(C(=O)COC(=O)c2cc([N+](=O)[O-])ccc2N2CCOCC2)cc1C,9.2,3.9,-2.7,-6.0,i,.,2.4,.,
Nc1ncnc2c1ncn2[C@@H]1O[C@H](C(=O)Nc2ccc(C(=O)N3CCCCC3)cc2)[C@@H](O)[C@H]1O,10.7,4.0,6.4,-11.9,.,.,.,.,
O=C(O)c1cccc(N2C(=O)C3C4C=CC(C4=C(c4ccccc4)c4ccccc4)C3C2=O)c1 (stereo not drawn),6.4,3.1,3.6,.,i,9.7,2.2,4.5,
COc1ccc(-c2[nH]ncc2C=O)cc1,-8.9,-0.4,-2.2,.,i,-0.3,-2.2,-2.5,

# Ordered by SMILES length (largest number first): some entries from above.
SMILES,Env fusion inh,MT1-MMP act inh,MT1-MMP act inh RFP,UUG fidelity,Rce1 inh,PABP FP inh,CSC inhib,eIF4H inh,others
Nc1ncnc2c1ncn2[C@@H]1O[C@H](C(=O)Nc2ccc(C(=O)N3CCCCC3)cc2)[C@@H](O)[C@H]1O,10.7,4.0,6.4,-11.9,.,.,.,.,
CCCCCCNC(=O)N1C/C=C\C(c2ccc(OC)cc2)N(Cc2ccc(F)cc2)C(=O)C1 (stereo not drawn),28.0,0.6,-0.9,-12.9,i,-6.7,-11.0,-3.7,
CC1(C)CC2(CCO1)OC(=O)CC2C(=O)Nc1ccc(Cl)cc1[N+](=O)[O-] (stereo not drawn),-12.0,0.8,6.2,.,i,7.1,-6.1,-8.8,
Cc1ccc(C(C)C)c(OCC(=O)N/N=C/c2cccn2C)c1,3.3,1.1,-13.1,-7.0,i,-5.5,33.4,6.6,
O=C(CSCc1c(Cl)cccc1Cl)Nc1ccc2c(c1)OCO2,-11.5,-0.1,-1.8,2.0,i,-6.1,5.8,-5.3,
CCOC(=O)c1ccc(NC(=O)Nc2cc(C)on2)cc1,-12.6,0.1,-0.8,-26.9,i,5.0,16.2,-1.6,
CC(C)(C)c1cc(NC(=O)c2cccnc2)no1,-55.6,1.0,-3.9,-6.6,i,9.4,-0.2,4.4,
NC(=S)NN=C1c2ccccc2-c2ccccc21,-35.2,3.8,-13.3,-17.4,i,-5.4,2.2,-8.3,
CC(=O)Nc1cccc(N2CCCC2=O)c1,.,5.8,1.0,.,i,5.0,-0.3,-5.6,

# Next part.
SMILES,Env fusion inh,MT1-MMP act inh,MT1-MMP act inh RFP,UUG fidelity,Rce1 inh,PABP FP inh,CSC inhib,eIF4H inh,others
CCOC(=O)N1CCC(NC(=O)CC(NS(=O)(=O)c2ccc(C)cc2)c2ccco2)CC1 (stereo not drawn),.,-1.2,-2.5,-2.9,i,59.1,3.6,-5.0,eIF4H inh retest=-3.4;PABP FP inh retest=-1.6
COC(=O)C(NC(=O)CCc1c(C)nc2c(c(C)nn2-c2ccccc2)c1C)C(C)C (stereo not drawn),23.4,-6.5,-4.5,-4.3,i,-5.1,-1.5,-11.1,
O=C(Nc1ccc(NC(=O)c2ccccc2O)cc1)Nc1ccc(F)cc1F,15.9,2.8,0.5,.,i,-1.4,2.3,2.8,
CC1(C)NC(=O)N(CC(O)COc2ccccc2C(=O)N2CCCCC2)C1=O (stereo not drawn),.,-0.8,6.8,-8.3,i,-3.9,-5.0,3.3,
CN1C(C(=O)NCc2cccs2)=CC(c2ccc(F)cc2)=NS1(=O)=O,71.1*,1.5,2.6,-19.8,i,-2.4,1.1,-9.5,
COc1ccc(NC(=O)CN2C(=O)NC3(CCCCC3C)C2=O)cc1OC (stereo not drawn),-4.0,-2.8,-0.7,-7.4,.,.,.,.,
CCOC(=O)c1cccc(NC(=O)C2CCN(S(=O)(=O)c3cnc[nH]3)CC2)c1,11.5,7.1,3.8,-18.0,i,6.2,-5.0,-2.6,
COc1ccc(C(=O)NCCCSC)cc1OC1CCN(C(C)C)CC1,7.3,3.3,-1.6,-19.9,i,6.9,-8.4,8.8,
Cc1ccc(CN2CCNC2=O)cc1,.,6.1,2.6,-4.8,i,0.3,3.3,-5.0,
CCN(CC)CCN(C(=O)/C=C/c1cccs1)c1nc2ccc(OC)cc2s1,-2.9,-1.6,-1.1,-18.0,.,.,.,.,
Cc1ccc(S(=O)(=O)N(C)C)cc1NC(=O)COC(=O)c1ccc(Cl)cc1,9.5,-0.7,1.7,-4.1,i,5.2,3.6,-3.2,
Cc1cc(C)nc(Oc2ccc(Br)cc2)n1,-10.2,2.9,3.3,-20.7,i,3.3,-7.1,-3.8,
O=C(Cc1ccccc1)Nc1nnc(SCC(=O)NC2CCCC2)s1,11.9,-8.4,-5.0,.,i,-6.3,3.4,-6.6,
NC(=O)c1ncn([C@@H]2O[C@H](CNCc3cnc(N4CCOCC4)s3)[C@@H](O)[C@H]2O)n1,11.8,2.4,4.6,-12.5,.,.,.,.,
CCOc1ccc(CCNC(=O)COC(=O)C2CCN(c3ccc(C(F)(F)F)cn3)CC2)cc1OCC,12.4,1.5,2.3,7.2,i,.,-7.4,.,
O=C(O)c1cccc(NS(=O)(=O)c2cccc(C(=O)Nc3ccccc3[N+](=O)[O-])c2)c1,-9.2,-1.5,-0.1,-1.8,i,10.8,-7.4,-7.4,
COc1ccccc1C(=O)Nc1nnc([C@H]2C[C@H](O)[C@@H](CO)O2)s1,-2.4,-1.4,4.1,-28.0,.,.,.,.,
O=C(CSc1nnc(COc2ccc(Cl)cc2)n1Cc1ccco1)N1CCNC1=O,5.2,-1.8,-0.5,0.3,.,.,.,.,
Cc1ccc(C(=O)N2CCCC(c3ccc(Cl)cc3)=N2)cc1,1.7,0.9,-5.5,.,.,5.5,-0.2,-5.8,
COCCN(C(=O)COC(=O)CSc1ccc(Cl)cc1)c1c(N)n(CC(C)C)c(=O)[nH]c1=O,7.0,1.7,2.0,16.7,.,.,.,.,
CNc1ccccc1C(=O)OCC(=O)N(CCOC)c1c(N)n(CC(C)C)c(=O)[nH]c1=O,-1.1,0.9,4.0,-13.8,i,.,-1.3,.,
CCc1nc(SCC(=O)Nc2cc(C)ccc2OC)c2c(C)c(C)sc2n1,37.3,-6.7,-3.8,-12.5,i,6.8,.,-16.1,
Cc1ccccc1CCNC(=O)C1CCC(=O)N(Cc2ccc(Cl)cc2)C1 (stereo not drawn),-3.2,1.7,2.9,6.5,i,4.8,-9.5,-5.0,
Cc1ccc(CN2CCN(C(=O)CCC(=O)Nc3nnc(C(C)C)s3)CC2)c(C)c1,-2.5,-1.7,-9.8,-1.5,i,2.4,-3.0,0.1,
O=C(/C=C\c1ccco1)Nc1cc([N+](=O)[O-])ccc1F,.,23.9,9.6,.,i,-14.6,.,39.8,
O=C(Nc1ccccc1Cl)c1ccc(S(=O)(=O)N2CCOCC2)cc1,14.0,0.7,-2.5,-15.6,i,0.0,-6.0,-0.9,
Cc1ccn(CCC(=O)N2CCCC(N3CCN(c4ccccc4C)CC3)C2)n1 (stereo not drawn),-10.4,2.6,3.3,-11.3,.,.,.,.,
Cc1cc(NC(=O)CCC(=O)N(Cc2ccco2)C(C(=O)NC2CCCCC2)c2ccccc2)no1 (stereo not drawn),.,0.1,1.9,-2.9,i,-4.3,0.9,0.1,
O=C1CC(Cc2ccccc2)C(=O)N1c1ccccn1 (stereo not drawn),-17.7,2.0,3.7,.,i,-1.6,-7.8,-2.4,
COc1cc(CNc2cccc(C(=O)O)c2)cc(Br)c1OCC(=O)NC(C)(C)C,.,-1.5,3.3,.,i,-2.1,-3.8,15.0,
COC(=O)C(C(=O)OC)C(C(=O)OC)C(C(=O)OC)C(=O)OC,.,-0.5,-0.3,-1.5,i,-9.4,-3.7,-7.3,
Cc1cccc(NC(=O)c2c(O)c3ccccc3[nH]c2=O)c1,-18.0,4.1,0.1,-15.4,i,15.4,-4.4,-15.3,
O=C(Nc1ccccc1C(=O)N1CCOCC1)C1COc2ccccc2O1 (stereo not drawn),.,-2.4,-1.6,.,i,10.9,6.5,3.5,
CCCCC(=O)NC(=S)Nc1cccc(NC(=O)CC)c1,-11.2,5.4,4.6,-21.1,i,9.3,-8.9,-0.1,
CCc1cc(=O)oc2cc(OCc3ccc(C(=O)O)o3)ccc12,-21.3,-1.3,-0.7,-11.3,i,3.2,-11.3,10.3,
Cc1ccc(Nc2nc(N)nc(-c3oc4ccccc4c3C)n2)cc1,.,6.8,-10.3,.,i,6.0,40.1,-6.5,
O=C(O)c1cc2c(cc1Br)OCCCO2,9.9,-1.9,-0.8,.,i,-1.1,-13.2,-2.1,
O=C(CCC(=O)OCC(=O)c1ccc(-c2ccccc2)cc1)Nc1cccc(Cl)c1,-265.8,-2.7,4.6,-21.0,i,0.5,-2.4,-1.4,
Cc1ccc(-c2cc(-c3nnc(SCC(=O)NCC(C)C)n3N)c3ccccc3n2)cc1,.,-1.0,-1.0,-18.0,i,3.5,-6.9,1.2,
CSc1cccc(NC(=S)N(CCC(C)C)C2CCN(C(C)C)CC2)c1,-7.3,1.6,-3.3,-27.3,i,-14.9,11.6,4.5,
